# Compound activity: PubChem BioAssay, National Center for Advancing Translational Sciences (NCATS)
# GLA inh pH 4.5 = qHTS Assay for Inhibitors of Human alpha-Galactosidase at pH 4.5. Alpha-galactosidase A (Homo sapiens), P06280. purified enzyme, 4-MU-alpha-Gal fluorescence, pH 4.5. activity change, negative = inhibition, % at 105 µM. 230,000 tested, under 10 active. AID 1467, 2008; inconclusive = small, poorly fitted or top-dose-only inhibition, or a rising curve; inactive = flat fitted curve, though single readings scatter; no compound was filed as active;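 further: 0% = full activity with enzyme and -100% = basal without enzyme; dose as in the result columns while the protocol names 77 µM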
# Target sequence (P06280 whole entry, looked up): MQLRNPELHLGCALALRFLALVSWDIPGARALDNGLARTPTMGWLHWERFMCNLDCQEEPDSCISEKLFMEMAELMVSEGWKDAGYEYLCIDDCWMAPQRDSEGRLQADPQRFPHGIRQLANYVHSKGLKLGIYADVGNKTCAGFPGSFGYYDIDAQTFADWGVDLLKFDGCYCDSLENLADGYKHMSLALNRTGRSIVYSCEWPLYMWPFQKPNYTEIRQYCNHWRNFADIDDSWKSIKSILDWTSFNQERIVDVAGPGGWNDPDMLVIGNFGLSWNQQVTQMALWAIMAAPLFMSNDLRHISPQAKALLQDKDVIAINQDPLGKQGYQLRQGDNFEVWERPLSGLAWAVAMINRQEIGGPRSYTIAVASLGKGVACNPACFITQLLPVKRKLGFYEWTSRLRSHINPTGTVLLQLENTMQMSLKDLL
# Rango-impB inh = qHTS Assay for Inhibitors of Rango (Ran-regulated importin-beta cargo) - Importin beta complex formation; Rango CFP/YFP FRET sensor + importin beta, 45 min; Potency, µM (top dose mostly 92.2 µM), for inactives: at the top dose inhibition of complex formation; actives 0.031% (n = 340,000); Importin subunit beta-1 (Homo sapiens), Q14974; active = rising FRET ratio curve, often small or poorly fitted; inconclusive = mostly compound fluorescence or quenching in the first reads; inactive = flat curves in all reads;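 further: potency means the concentration at half of the fitted maximal effect; 0% = DMSO wells and 100% = buffer wells lacking importin beta; nearly all actives have a fitted effect of over 15% in size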
#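 FRET biosensor Rango (snurportin 1 IBB between N-terminal EYFP and C-terminal Cerulean), 50 nM in PBS/1 mM DTT/0.02% Tween-20/0.1% BSA, preincubated 5 min RT with compound; 0.125 microM importin beta added, 45 min RT, CFP/YFP FRET ratio read.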
# Rango dissoc inh = qHTS Assay for Inhibitors of RanGTP induced Rango (Ran-regulated importin-beta cargo) - Importin beta complex dissociation. Biochemical FRET Rango-importin beta, RanGTP-induced dissociation. Potency, µM (titrated, usually from 46.1 µM), without a hit: top-dose activity change, negative = inhibition. actives 0.071% (n = 340,000). AID 540253, 2011; active means falling FRET ratio curve, often poorly fitted, with flat reads before Ran was added; inconclusive means other falling curves, or compound fluorescence or quenching; inactive means flat or rising ratio curve;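 further: potency means the concentration at half of the fitted maximal effect; % of control where 0% means no effect; nearly all actives have a fitted effect of over 45% in size; -100% = wells without RanGTP and RCC1; the record marks most hits as doubtful in a second field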
#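 FRET read at 45 min, room temperature: inhibitors block the CFP/YFP signal rise when RanGTP (0.6 uM Ran, 2 mM GTP, 0.2 uM RCC1) frees Rango (0.1 uM) from importin beta (0.25 uM). Pre-read after 5 min compound exposure flags interference.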
# miR-21 FLuc = qHTS Assay for Modulators of miRNAs and/orActivators of miR-21 | Potency, µM (doses to about 38.3 µM), for the others: at the highest dose reporter change, positive = more light | HeLa miR-21 FLuc reporter, luciferase, 48 h | 340,000 tested, under 10 active; active = well fitted rising curve with a large enough effect; inconclusive = small, poorly fitted or top-dose-only effect; inactive = no such curve, though single readings can be large or run the other way;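 further: % of control where 0% means no effect; miR-21 action dims this reporter so a rising signal means less miR-21 action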
#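 HeLa cells endogenously expressing miR-21, stably carrying CMV-driven firefly luciferase with a downstream miR-21 binding site, 2000 cells/well. Titrations up to approximately 40 uM, 48 hours; luciferase luminescence read.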
# * = called active by the depositor; u = inconclusive; x = not tested or not shown. Some of the compounds tested (hit frequency here may not be typical).
SMILES,GLA inh pH 4.5,Rango-impB inh,Rango dissoc inh,miR-21 FLuc
COCCn1c(=NC(=O)CCS(=O)(=O)c2ccccc2)sc2cc(F)ccc21,x,-2.0%,u,-11%
COc1cc(CNC2CCCCCCC2)ccc1OCC(N)=O,x,-0.5%,11%,-6%
N/C(=N\c1nc2c(c(=O)[nH]1)CCC2)Nc1cccc(Cl)c1,-4,8.7%,-12%,11%
CC(=O)Nc1ccc2c(c1)C(=O)c1cccc(C(=O)O)c1-2,x,1.0%,-16%,x
CCOCCCNc1ncnc2c1[nH]c1ccccc12,2,5.8%,-4%,8%
CCOC(=O)C1(Cc2cccc(OC)c2)CCN(C(C)CC(C)(C)O)CC1 (configuration not stated),0,5.1%,15%,0%
O=C1c2ccccc2C(O)(c2ccccc2)N1CCc1ccccc1 (configuration not stated),x,-1.6%,-12%,5%
CCOC(=O)c1cc(-c2ccc(C)cc2)nc2nc(SC)[nH]c(=O)c12,7,0.5%,-3%,-11%
O=C(O)COCC(=O)N1CCN(C(c2ccccc2)c2ccccc2)CC1,-2,2.6%,32%,-6%
COc1ccc(NC(=O)CN(c2ccccc2F)S(=O)(=O)c2ccc(C)cc2)cc1,x,1.4%,0%,5%
CCN1CCN(C(=O)/C=C/c2ccc([N+](=O)[O-])cc2)CC1,5,5.8%,3%,1%
CCn1c(-c2cccnc2)n[nH]c1=S,1,-1.2%,-1%,1%
CCC(=O)NCCNc1nc2cc(C)c(C)cc2cc1C#N,14,u,u,-4%
CCC1CCC(c2nnc(-c3ccc([N+](=O)[O-])cc3)o2)CC1 (configuration not stated),7,7.8%,u,-31%
CN(Cc1ccccc1)c1nc(N)c([N+](=O)[O-])c(NCc2ccccc2)n1,-14,-0.1%,20%,-13%
CN(C(=O)CSc1nnc(-c2ccccc2F)o1)c1ccccc1,x,0.3%,5%,x
COc1ccc(-c2csc(NC(=O)c3cccs3)c2C(=O)O)cc1OC,-6,0.5%,-16%,-1%
CC(C)N1CSC(=S)N(Cc2ccccc2)C1,3,2.0%,5%,-4%
COc1ccc(C)cc1N(C(=O)COc1cccc(F)c1)c1nc2ccccc2s1,-1,u,0%,6%
Cc1ccc(NS(=O)(=O)c2ccc3c(c2)NC(=O)C(C)C(=O)N3)c(Br)c1 (configuration not stated),x,-1.2%,-5%,-5%
OCc1ccc(-c2nn(Cc3ccccc3)c3ccccc23)o1,-10,2.1%,-3%,x
Cc1ccccc1C(=O)c1cccn1CC(=O)NCCCc1ccccc1,x,-0.6%,18%,2%
O=C(c1ccc(Cl)cc1)c1ccc(CN2C(=O)c3ccccc3C2=O)o1,3,-0.2%,8%,-1%
CC1=C(C(=O)Nc2ccccn2)C(c2ccc(Cl)cc2Cl)NC(=S)N1 (configuration not stated),-10,-1.2%,23%,-42%
CSc1nc(SCC(N)=O)c2c3c(sc2n1)CN(C)CC3,-1,-3.5%,6%,3%
CC(=O)c1ccc(OCc2cc(C(=O)NC3CCCCC3)no2)cc1,x,1.1%,-13%,-55%
CCOC(=O)c1ccc(NC(=O)CC2OCCN(CC)C2=O)cc1 (configuration not stated),1,u,-4%,-10%
O=C1CSC(c2cccnc2)N1c1ccc(F)cc1 (configuration not stated),5,2.9%,-3%,-1%
O=C(NCc1ccncc1)c1cncc(Br)c1,-12,u,1%,-2%
Cc1ccc(OCCCn2ccnc2)c(Br)c1,x,-0.3%,5%,-22%
COc1ccc(C)cc1NC(=O)c1nnn(Cc2cccc(C(F)(F)F)c2)c1N,5,5.7%,14%,17%
Cc1c(C)n(Cc2ccc(F)cc2)c2ccc(C(=O)NCCCN3CCOCC3)cc12,x,-1.0%,2%,9%
Cc1cccc(N2CCN(C(=O)c3ccc(N4CCCC4=O)cc3)CC2)c1C,6,-0.8%,-11%,-9%
Oc1ccc2cccnc2c1,3,u,u,-5%
CC(Oc1ccc2c3c(c(=O)oc2c1)CCC3)C(=O)NCc1ccccn1 (configuration not stated),x,4.0%,0%,3%
O=[N+]([O-])c1ccccc1S(=O)(=O)N1CCN(C2CCN(Cc3ccccc3)CC2)CC1,x,-0.8%,-16%,0%
O=C(Nc1nnc(SCc2ccccc2F)s1)c1ccco1,-4,-1.3%,-20%,-28%
CC(C)(C)c1ccc(/C=N/OCC(=O)NCc2ccccc2)cc1,-5,5.0%,5%,15%
CCc1cc2c3c(c1)/C(=C1/SC(N)=NC1=O)C(=O)N3C(C)(C)C=C2C,1,-0.2%,1%,-8%
COc1cccc(NC(=S)NNC(=O)Cn2nc(C(F)(F)F)cc2C)c1,3,-4.4%,-8%,0%
Cc1cccc(-n2ncc(C#N)c2-n2cccc2)c1,-5,-4.8%,-14%,-9%
COc1ccc2oc(C(=O)Nc3ccccn3)c(C)c2c1,x,u,-4%,-16%
Cc1ccc(C)c(N2CCN(C(=O)C3CCN(S(=O)(=O)c4cccc5nsnc45)CC3)CC2)c1,-7,-1.3%,-9%,28%
NS(=O)(=O)c1ccc(CNC(=O)CSc2nc3ccc(Cl)cc3[nH]2)cc1,x,-0.2%,-9%,1%
CC(C)(C)OC(=O)C[C@H]1C/C=C\C[C@H](CC(=O)NCCO)C(=O)NCCOC1=O,x,2.8%,1%,x
CCCn1c(O)c(N=N)c2ccccc21,-29,-1.7%,-17%,-10%
COC(=O)[C@H](CCSC)NC(=O)Nc1ccc(C(C)=O)cc1,1,3.3%,4%,-5%
CCc1nc(NC2CCCCC2)c(C#N)c2c1COC(C)(C)C2,-4,-1.2%,7%,1%
CCOC(=O)c1ccc(NC(=S)N(CCCN2CCCCC2)Cc2ccco2)cc1,-12,3.4%,0%,-14%
OCCCCNCc1cc(Br)ccc1OCc1ccccc1F,-1,-2.9%,23%,-4%
CC1CCN(C(=O)CNS(=O)(=O)c2ccc(Br)s2)CC1,2,0.7%,15%,-2%
COCCSc1ccccc1C(=O)N1CCC(Cc2ccccc2)CC1,6,-0.2%,-2%,-5%
O=C(N/N=C/c1ccc[nH]1)c1cccc(Br)c1,-8,7.0%,0%,-13%
Cc1cc(C(F)F)n2nc(C(=O)Nc3c(F)cc(F)cc3Br)nc2n1,-1,2.2%,0%,-16%
COc1cc(C2c3cc4c(cc3CC3COC(=O)N32)OCO4)cc(OC)c1OC (configuration not stated),x,-0.1%,-3%,x
Cc1ccc(N(C)S(=O)(=O)c2ccc3c(c2)CC(C)N3C(=O)C2CC2)cc1 (configuration not stated),x,-2.5%,9%,-1%
O=C(NNC(=O)C1CCC1)c1ccc(Br)cc1,x,4.8%,16%,x
Cc1ccc(NC(=O)C(C)N2C(=O)c3ccccc3S2(=O)=O)cc1Cl (configuration not stated),x,-2.9%,-16%,x
O=C(CSc1nnc2n(C3CCCCC3)c(=O)c3ccccc3n12)OC1CCCCC1,2,-3.0%,-1%,0%
COc1cc2[nH]c(=S)n(Cc3ccccc3)c(=O)c2cc1OC,-11,4.0%,-13%,-4%

# Limited to Rango-impB inh and GLA inh pH 4.5, for 4 of the compounds above:
compound | Rango-impB inh | GLA inh pH 4.5
Cc1ccc(N(C)S(=O)(=O)c2ccc3c(c2)CC(C)N3C(=O)C2CC2)cc1 (configuration not stated) | -2.5% | x
O=C(CSc1nnc2n(C3CCCCC3)c(=O)c3ccccc3n12)OC1CCCCC1 | -3.0% | 2
COCCSc1ccccc1C(=O)N1CCC(Cc2ccccc2)CC1 | -0.2% | 6
Cc1ccc(NC(=O)C(C)N2C(=O)c3ccccc3S2(=O)=O)cc1Cl (configuration not stated) | -2.9% | x

# An excerpt from above in order of number of heavy atoms, falling.
SMILES,GLA inh pH 4.5,Rango-impB inh,Rango dissoc inh,miR-21 FLuc
COc1cc(C2c3cc4c(cc3CC3COC(=O)N32)OCO4)cc(OC)c1OC (configuration not stated),x,-0.1%,-3%,x
CC1CCN(C(=O)CNS(=O)(=O)c2ccc(Br)s2)CC1,2,0.7%,15%,-2%
O=C(NNC(=O)C1CCC1)c1ccc(Br)cc1,x,4.8%,16%,x

# Remaining list, next part:
SMILES,GLA inh pH 4.5,Rango-impB inh,Rango dissoc inh,miR-21 FLuc
COc1ccccc1NC(=S)N(CCN1CCOCC1)Cc1ccccc1F,3,0.4%,-1%,-7%
Cc1ccccc1-c1nnn(Cc2ccc(-c3nn[nH]n3)cc2)n1,-9,-1.3%,2%,-5%
Cc1cc(Br)ccc1NC(=O)CN(C)C(=O)CNC(=O)Cc1ccccc1,x,1.2%,20%,x
Cc1ccc2[nH]c3c(c2c1)CN(C(C)C)CC3,x,u,-10%,-1%
CCOC(=O)c1cnc(-n2nc(C)cc2C)[nH]c1=O,-1,-0.1%,-2%,1%
COc1cccc(OCC(=O)NNC(=O)C(=O)Nc2cccc(C)c2)c1,x,0.9%,-8%,-24%
COc1cc(CN2CCN(Cc3ccc4cc(F)ccc4n3)CC2CCO)cc(OC)c1 (configuration not stated),x,-3.1%,-7%,2%
Cc1cccc(NC(=O)COC(=O)Cc2cccc(C(F)(F)F)c2)c1C,-12,0.8%,6%,-4%
O=C(NCc1ccco1)c1cccnc1Cl,-2,0.1%,0%,-10%
Oc1c(Br)cc(Br)cc1C=Nc1ccc2c(c1)OCO2,-2,u,u,-10%
COc1ccc2[nH]c(=O)c(CN(C(=O)c3cccnc3)c3ccccc3)cc2c1,-4,2.3%,3%,-5%
COc1ccc(C(=O)Nc2ccc(S(=O)(=O)Nc3nccnc3OC)cc2)cc1,6,-2.1%,u,0%

# Some of the entries above, set out differently:
canonical_smiles | GLA inh pH 4.5 | Rango-impB inh | Rango dissoc inh | miR-21 FLuc
COc1ccc(C(=O)Nc2ccc(S(=O)(=O)Nc3nccnc3OC)cc2)cc1 | 6 | -2.1% | u | 0%
CCOC(=O)c1cnc(-n2nc(C)cc2C)[nH]c1=O | -1 | -0.1% | -2% | 1%

# The list continues:
SMILES,GLA inh pH 4.5,Rango-impB inh,Rango dissoc inh,miR-21 FLuc
O=[N+]([O-])c1ccc(C2=CSC3=NCCN23)cc1,x,-0.6%,-2%,x
COC(=O)c1ccc(N=C2SCC(=O)N2C)cc1,x,2.4%,4%,-14%
CC(C)(C)NC(=O)CSc1nc(N)c(NC(=O)c2ccccc2F)c(=O)[nH]1,3,0.8%,-9%,2%
O=C(NCc1ccccc1Cl)C1CCC(=O)N1Cc1ccc(F)cc1 (configuration not stated),x,0.0%,5%,0%
CC(=O)N1CC(=O)N=C1SCC(=O)Nc1nc(C)c(-c2ccccc2)s1,-8,3.6%,1%,-13%
Cn1c(=O)n(C)c2cc(NC(=O)c3ccccc3NS(C)(=O)=O)ccc21,x,-1.3%,12%,-15%
CC1CCCCN1C(=S)NC(=O)c1cccs1 (configuration not stated),3,0.0%,1%,-19%
Cc1cccc(Oc2ncc(-c3ccc(Cl)cc3)cn2)c1,2,3.5%,-5%,-5%
COC(=O)C1CC(O)CN1C(=O)Nc1ccccc1 (configuration not stated),-5,-3.7%,16%,-2%
Cc1cc(C)c2[nH]c(C)c(CN3CCCCCC3)c(=O)c2c1,x,-1.6%,17%,-3%
Cc1oc(CC(C)C)c(CN2CCCC2)c1C(=O)O,0,0.8%,0%,0%
Cc1ccc(CCC(=O)Nc2ccccc2F)s1,5,0.3%,10%,-57%
CC(C)OC(=O)Cn1nc(C(c2ccccc2)c2ccccc2)oc1=O,x,-0.9%,-1%,0%
COc1cc(OC)cc(C(=O)NN(CCC#N)C2=NS(=O)(=O)c3ccccc32)c1,x,5.5%,2%,-1%
O=C(CCCn1c(=O)[nH]c2ccccc2c1=O)Nc1ccc(F)cc1,-2,-2.5%,-17%,-11%
C=CCNc1oc(-c2cccc3ccccc23)nc1C#N,u,-2.2%,5%,-50%
COc1ccc(CCNC(=O)C2CCN(C(=O)c3ccccc3)CC2)cc1,x,0.6%,0%,-1%
CN1CCN(CCC(=O)Nc2ccc(Br)cc2)CC1,8,0.0%,-9%,-11%
CN=C1SC(CC(=O)Nc2ccc(C(C)=O)cc2)C(=O)N1C (configuration not stated),x,-2.1%,-7%,x
O=C1C2C3C=CC(CC3)C2C(=O)N1c1ccc(Cl)cc1Cl (configuration not stated),x,11%,9%,-6%
